Bioassay records as filed in PubChem BioAssay.
Measles inh – inhibitors of measles virus growth in cells, primary screen, measles RdRp inhibitor project, cell-based, single point, HTS. infected Vero cells, GFP fluorescence, 64 h; stronger effect = lower value. hit rate 0.1% among 33,000. AID 745, 2007. z-score (concentration not given with the values);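 active means z-score under -3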;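 further: score is relative to mean and SD of the compound wells of a plate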
Numbers without * were called inactive.

structure,Measles inh
Cc1nc(Nc2cccc(C(F)(F)F)c2)c2c(C)c(C)sc2n1,0.19
Cc1cc(C)n2cc(CSc3nc4cc([N+](=O)[O-])ccc4s3)nc2n1,0.94
CCOc1ccccc1NC(=O)c1ccc(Cl)cc1,0.54
CCC(=O)Nc1sc2c(c1C(N)=O)CCC2,-0.94
O=C(CSc1nc2ccccc2o1)Nc1cccc2c1C(=O)c1ccccc1C2=O,6.94
C=C(C)COc1ccc2c3c(c(=O)oc2c1OCC(=C)C)CCC3,-0.48
COc1cccc(CNC(=O)CCSCc2ccccc2F)c1,-2.29
C=CCn1c(=N)n(CC(=O)OCC)c2ccccc21,1.31
COc1cccc(-n2c(=O)c3sccc3n(CC(=O)NCCc3ccc(S(N)(=O)=O)cc3)c2=O)c1,2.05
O=C1CC(=O)NC(SCc2ccccc2)=N1,1.08
CC(=O)Oc1ccc(C2Nc3ccc(C(C)=O)cc3C3C=CCC32)c(OC(C)=O)c1 (centres undefined),-1.36
COc1ccc(C(=O)NC(C)c2nc3ccccc3n2C)cc1OC (centres undefined),-0.4
Cc1cccc(NC(=O)Cn2cc(C(=O)C(F)(F)F)c3ccccc32)c1,-0.49
COc1ccc(-n2c(=S)[nH]c3cc(C(=O)N(C)Cc4ccccc4)ccc3c2=O)cc1,0.1
CCCCCCN1C(=O)C(=O)/C(=C(/O)c2ccccc2)C1c1ccc(Br)cc1 (centres undefined),-0.48
COc1ccc(-n2nc(C(=O)NCC(=O)N3CCN(C)CC3)c3ccccc3c2=O)cc1,-1.01
CCN(C(=O)c1cccc(C(=O)N(CC)c2ccccc2)c1)c1ccccc1,-0.37
O=C(CCc1nc(-c2ccccc2F)no1)NCCCN1CCCC1,-0.83
Cc1cc(N2CCCCC2)nc2ccc(NC(=O)COc3ccc(Cl)cc3)cc12,0.15
FC(F)(F)c1c(Cl)nc(Cl)c(Cl)c1Cl,0.04
CCOC(=O)C1=C(N)N(c2cccc(C(F)(F)F)c2)C2=C(C(=O)CCC2)C1c1ccsc1 (centres undefined),-0.11
Cc1nc2ccc(-c3ccc4nc(C)n(-c5ccc6c(c5)OCO6)c(=O)c4c3)cc2c(=O)n1-c1ccc2c(c1)OCO2,1.21
C=CCNC(=O)c1ccc2c(c1)[nH]c(=S)n1c3ccccc3nc21,0.62
COc1ccc(C(=O)Nc2ccc(-c3nc4cc(C)cc(C)c4o3)cc2)cc1[N+](=O)[O-],-0.33
CC1=C(C(=O)Nc2cccc(C)n2)C(c2ccccc2)C2=C(CC(C)(C)CC2=O)N1 (centres undefined),0.3
Cc1sc2c(c1C)c(=O)n(Cc1ccccc1)c(=O)n2CC(=O)C(C)(C)C,-0.08
O=S(=O)(Nc1ccc(O)c(Br)c1)c1cccs1,0.73
COc1ccc(-n2nc(C(=O)Nc3cccc(NC(C)=O)c3)c3ccccc3c2=O)c(OC)c1,-0.38
CCCn1c2ccc(Cl)cc2c2nc3ccccc3nc21,0.38
COc1ccc(OC)c(N=C2SCC(=O)N2Cc2ccccc2)c1,-0.8
CCC(=O)N1CCc2cc(S(=O)(=O)CCC(=O)Nc3ccccn3)ccc21,-0.63
CCCCOc1ccc(-c2nn(-c3ccccc3)cc2C2NC(=O)NC(C)=C2C(=O)OC)cc1 (centres undefined),0.56
Cc1nc2n(CC(=O)N3CCCC3)c3ccccc3n2n1,2.41
O=S1(=O)NC(=NC2CC2)c2ccccc21,-0.12
O=c1nc2n3ccsc3ncc-2s1,0.24
O=C(N1CCCc2ccccc21)C12CC3CC(CC(C3)C1)C2,-0.74
CCn1ncc(C(=O)Nc2ccc(S(=O)(=O)N3CCCC3)cc2)c1C,-0.44
Nc1ncnc(NCCOCCO)c1[N+](=O)[O-],1.33
O=C(Nc1ccccc1F)c1cc(-c2cccs2)nc2ccccc12,-0.75
Cc1ccc(NC(=O)C2CCCN(S(=O)(=O)c3c(C)n[nH]c3C)C2)c(C)c1 (centres undefined),0.52
CSc1nc2c(c(=O)[nH]1)C(c1cccc(F)c1)C1=C(CC(C)(C)CC1=O)N2 (centres undefined),-0.45
Cc1c(C(=O)N(Cc2ccccc2)c2ccccn2)cccc1[N+](=O)[O-],-1.25
Cc1sc2nc(C=Cc3ccccc3)oc(=O)c2c1C,-0.54
Cc1cc(C)n(-c2cccc(Cl)c2)c(=O)c1C(N)=O,-0.24
Cc1ccccc1NC(=O)c1ccccc1,2.73
CC1=C(C(=O)N2CCOCC2)C(c2ccc(Cl)cc2)C2=C(CC(C)(C)CC2=O)N1 (centres undefined),0.18
O=C(CC1(O)C(=O)N(Cc2ccc(Cl)cc2)c2ccccc21)c1ccc(Br)s1 (centres undefined),0.96
C=CCN1C(=O)C(=Nc2sc3c(c2C(=O)Nc2ccccc2)CCCC3)c2ccccc21,2.19
COc1cccc(C2=CC(c3cc(OC)ccc3OC)n3nnnc3N2)c1 (centres undefined),-0.23
CCOc1cc2c(cc1OCC)C1C(C(=O)N3CCCCC3C)c3ccccc3C(=O)N1CC2 (centres undefined),0.89
COC(=O)c1ccc(NC(=O)c2cccc(C(=O)OC(C)C)n2)cc1,-0.64
COCCCNC(=O)c1ccc2c(c1)ncn2C1CCCCCC1,-0.62
CCCS(=O)(=O)N1CCC(C(=O)NCCCN2CCOCC2)CC1,-0.66
CCOc1cccc2c1OC1(CCCCC1)N1N=C(c3cccs3)CC21 (centres undefined),0.48
CCOc1ccc(NC(=O)COc2ccc(C34CC5CC(CC(C5)C3)C4)cc2)cc1,-0.93
Cc1ccc(S(=O)(=O)CC(=O)c2ccccc2)cc1,-0.83
CC1CC(C)CN(S(=O)(=O)c2ccc(C(=O)Nc3ccc4c5c(cccc35)CC4)cc2)C1 (centres undefined),0.12
O=c1oc2ccc(Cl)cc2cc1-c1nnc(Nc2ccc(F)cc2)s1,0.27
CCOC(=O)c1sc(N2C(=O)C(=O)/C(=C(/O)c3ccc(F)cc3)C2c2cccc(Cl)c2)nc1C (centres undefined),-0.23
Cc1c(C(=O)OCC(C)C)[nH]c2c1C(=O)CC(c1ccc(Cl)cc1)C2 (centres undefined),-0.4

(listing goes on)
structure,Measles inh
CC(C)NC(=O)CNC(=O)Cn1ccc2ccccc2c1=O,0.12
COc1ccc(-c2ccc3c(N)c(C(=O)NCc4ccc(C(F)(F)F)cc4)sc3n2)cc1,-0.1
CCOc1ccc(NC(=O)c2sc3ncnc(N4CCN(c5ccc(OC)cc5)CC4)c3c2C)cc1,-0.26
CCN(C(=O)c1cn(CC(C)C)c(=O)c2cc(OC)c(OC)cc12)c1ccc(F)cc1,-0.39
CCC(=O)Nc1sc2c(c1C(=O)Nc1ccccc1C(F)(F)F)CCC(C(C)(C)C)C2 (centres undefined),-0.3
O=c1[nH]c2cc(S(=O)(=O)N3CCCCC3)ccc2o1,-0.14
COC(=O)c1ccc(Cc2nc3ccccc3n(C)c2=O)cc1,0.89
COc1ccc(-n2nc3c(c2NC(=O)Cc2ccccc2)CSC3)cc1,1.98
CCOC(=O)c1nc(Nc2ccc(Oc3ccccc3)cc2)c2ccccc2n1,-1.24
Cn1c(=O)oc2cc(S(=O)(=O)NCc3ccccc3)ccc21,-0.48
COc1ccc2oc(=O)c(C(=O)Nc3nc(-c4ccc(Oc5ccccc5)cc4)cs3)cc2c1,0.1
COc1cccc(OCCn2c(-c3ccc(Cl)cc3)nc3ccccc3c2=O)c1,-0.03
CC(C)(C)c1cc(C(=O)O)c(CN2CCCCC2)o1,-0.8
COCC(=O)Nc1ccc2nc(N3CCC(C)CC3)cc(C)c2c1,1.94
COC(=O)C1C(=O)C2=C(CC1C)NC(C)=C(C(=O)OC1CCCC1)C2c1cccc([N+](=O)[O-])c1 (centres undefined),0.82
CCOc1cc(C2C=C(c3cccc([N+](=O)[O-])c3)Nc3ncnn32)ccc1OC(F)F (centres undefined),-0.23
CCC(C)NC(=O)CSc1nc2nc(C)cc(C)n2n1 (centres undefined),-0.6
COc1cc2[nH]c(=O)n(Cc3ccc(C(=O)N4CCN(C5CCCCC5)CC4)cc3)c(=O)c2cc1OC,0.8
Cc1ccc(Nc2nc(C3(C)CC4(CC(C)OC4=O)C(=O)O3)cs2)cc1 (centres undefined),0.16
CCOC(=O)c1sc(=NC(=O)c2cccc(Oc3ccccc3)c2)n(C)c1C,0.47

(list continues)
smiles	Measles inh
CC(=O)N1CCc2cc(S(=O)(=O)N3CCN(C4CCCCC4)CC3)ccc21	-0.32
CCN1CCN(CCCNC(=O)c2cc3cc4ccc(OC)cc4nc3o2)CC1	-1.49
Nc1nonc1C(=O)OCC(=O)c1ccc(Br)cc1	-0.81
Cc1ccc(-n2c3c(cc(C(=O)Nc4ccc(S(N)(=O)=O)cc4)c2=O)C(=O)CCC3)cc1	0.76
Cc1ccc(Sc2c(C)nn(C(C)(C)C)c2OC(=O)C2CCCC2)cc1	-0.01
COc1ccc(-n2nc3c(c2NC(=O)c2ccc(Br)o2)CS(=O)C3)cc1 (centres undefined)	0.24
O=[n+]1cc(-c2ccccc2)n([O-])c2c1CCCC2	0.97
Cc1cc(C)cc(Oc2ccc(-c3cnc4ccccc4n3)cc2[N+](=O)[O-])c1	0.32
CC(=O)N1CCc2cc(Br)cc(S(=O)(=O)N3CCC(C(=O)Nc4ccccc4C)CC3)c21	0.02
COc1cccc(C(=O)Oc2c(Sc3ccccc3)c(C)nn2C(C)(C)C)c1OC	-0.26

2 of the compounds above, with values ahead of the structure:
Measles inh	mol
0.82	COC(=O)C1C(=O)C2=C(CC1C)NC(C)=C(C(=O)OC1CCCC1)C2c1cccc([N+](=O)[O-])c1 (centres undefined)
-0.23	CCOc1cc(C2C=C(c3cccc([N+](=O)[O-])c3)Nc3ncnn32)ccc1OC(F)F (centres undefined)

Next part.
smiles	Measles inh
CCN(Cc1ccccc1)S(=O)(=O)c1cc(C(=O)Nc2ccc(C(C)C)cc2)ccc1F	-0.06
Cc1cc(N2CCCCC2)nc2ccc(NC(=O)c3cccnc3)cc12	1.49
COCCNc1nc2c(c(=O)n(C)c(=O)n2C)n1Cc1cccc(Br)c1	1.04
CC(CC(=O)O)CC(=O)Nc1cc([N+](=O)[O-])ccc1O (centres undefined)	-0.4
C=CCSc1nnc2c(n1)OC(C)Nc1ccccc1-2 (centres undefined)	-1.71
COc1ccc(-n2nc3c(c2NC(=O)c2cc4ccccc4oc2=O)CS(=O)(=O)C3)cc1	0.5
O=C(O)c1ccc(C(=O)c2c3c(=O)n(-c4cccc(O)c4)c(=O)c3cc3c(=O)n(-c4cccc(O)c4)c(=O)c23)cc1	-0.4
COc1ccc(CCNC(=O)C(=O)Nc2ccc(C)c(C)c2)cc1	0.4
CCCC(=O)NC(c1ccc(C)cc1)c1ccc2cccnc2c1O (centres undefined)	-0.18
O=C(c1ccc(Cl)cc1)N1CCN(c2ccc([N+](=O)[O-])c(NCc3ccccc3)c2)CC1	-0.61
COC(=O)c1ccc(N2C(=O)CSC2c2cc3c(cc2[N+](=O)[O-])OCO3)cc1 (centres undefined)	0.08
CC(=O)Nc1cc(C(=O)NC(C)c2ccccc2)ccc1S(=O)(=O)c1ccc(Cl)cc1 (centres undefined)	-0.7
O=C(Nc1ccccc1O)c1ccc(Cl)cc1	-0.37
CC12CCC(C(=O)N(c3ccc(S(N)(=O)=O)cc3)C1=O)C2(C)C (centres undefined)	-1.39
CCOC(=O)C1CCCN(C(=O)c2cn(CC(C)C)c(=O)c3c2c2ccccc2n3C)C1 (centres undefined)	-0.26
CC(=O)NC(CCS(C)(=O)=O)C(=O)Nc1ccc(C(C)C)cc1 (centres undefined)	0.28
COc1ccc(C2CC(C(F)(F)F)n3ncc(C(=O)Nc4ccc5c(c4)OCO5)c3N2)cc1 (centres undefined)	0.52
COc1ccc2oc(=O)c(-c3csc(Nc4cc(Cl)ccc4OC)n3)cc2c1	-0.37
Cc1ccc(C)c(C(C)NC(=O)C2C3CCC(O3)C2C(=O)O)c1 (centres undefined)	-0.34
O=C(CSc1ncn[nH]1)Nc1ccc(Br)cc1	0.84
COC(=O)c1ccc2cc(C(=O)O)ccc2c1	0.3
N#Cc1ccc2ccccc2n1	0.78
CCOc1ccc(NC2=NC3(CCCC3)N=C(N)N2)cc1	1.06
CSc1nc2sc3c(c2c2n[nH]c(=S)n12)CC(C)(C)OC3	-0.2
Cc1[nH]c2ccc(Br)cc2c1CCNS(=O)(=O)c1ccc(F)cc1	-1.44
COc1cc(S(=O)(=O)NCc2ccco2)c(OC)cc1Br	-0.41
COc1cc2c(cc1OC)C(COc1ccc3c(C)cc(=O)oc3c1)N(C(=O)C(C)Oc1ccccc1)CC2 (centres undefined)	0.39
CCCn1c2c(c(O)c(C(=O)Nc3nc(C)cs3)c1=O)CCCC2	0.36
CCCCNC(=O)C1CCC(CNS(=O)(=O)c2ccccc2)CC1 (centres undefined)	1.15
Cc1cc2cc(CCNC(=O)c3cccc4ccccc34)c(=O)[nH]c2cc1C	0.36
C=CCSc1nnc2c(n1)OC(c1cccs1)N(C(=O)CC)c1ccccc1-2 (centres undefined)	-0.55
CCc1ccc(OCCNc2cc(N3CCNC(C)C3)ccc2[N+](=O)[O-])cc1 (centres undefined)	-0.56
CC1=C(C(=O)Nc2ccccc2)C(c2cccc(Cl)c2)NC(=S)N1 (centres undefined)	-0.31
O=C(CCNC(=O)Cn1ccc2ccccc2c1=O)NCc1ccc(F)cc1	1.24

Copied from the entries so far for reference:
smiles	Measles inh
COc1cc2c(cc1OC)C(COc1ccc3c(C)cc(=O)oc3c1)N(C(=O)C(C)Oc1ccccc1)CC2 (centres undefined)	0.39
CCCn1c2c(c(O)c(C(=O)Nc3nc(C)cs3)c1=O)CCCC2	0.36
CCCCNC(=O)C1CCC(CNS(=O)(=O)c2ccccc2)CC1 (centres undefined)	1.15
Cc1cc2cc(CCNC(=O)c3cccc4ccccc34)c(=O)[nH]c2cc1C	0.36
C=CCSc1nnc2c(n1)OC(c1cccs1)N(C(=O)CC)c1ccccc1-2 (centres undefined)	-0.55
CCc1ccc(OCCNc2cc(N3CCNC(C)C3)ccc2[N+](=O)[O-])cc1 (centres undefined)	-0.56

Not all compounds are listed. The share of hits here may be higher or lower than overall.
